Six1-Eya2 inh – qHTS Assay for Inhibitors of the Six1/Eya2 Interaction | hit rate 0.56% among 360,000 | AlphaScreen GST-Six1/His-Eya2 binding, biochemical; active compounds read low; control for the full effect not named in the record | AID 651725, 2012 | Homeobox protein SIX1 (Homo sapiens) + Protein phosphatase EYA2 (Homo sapiens), … | activity change, % (concentration not given with the values); in the data active = activity change below about -65%; inconclusive = about -30% to -65%; inactive = above about -30%; further: on the % scale 0 is the no-effect control and ±100 the full control effect
Target sequence (O00167 whole entry, looked up): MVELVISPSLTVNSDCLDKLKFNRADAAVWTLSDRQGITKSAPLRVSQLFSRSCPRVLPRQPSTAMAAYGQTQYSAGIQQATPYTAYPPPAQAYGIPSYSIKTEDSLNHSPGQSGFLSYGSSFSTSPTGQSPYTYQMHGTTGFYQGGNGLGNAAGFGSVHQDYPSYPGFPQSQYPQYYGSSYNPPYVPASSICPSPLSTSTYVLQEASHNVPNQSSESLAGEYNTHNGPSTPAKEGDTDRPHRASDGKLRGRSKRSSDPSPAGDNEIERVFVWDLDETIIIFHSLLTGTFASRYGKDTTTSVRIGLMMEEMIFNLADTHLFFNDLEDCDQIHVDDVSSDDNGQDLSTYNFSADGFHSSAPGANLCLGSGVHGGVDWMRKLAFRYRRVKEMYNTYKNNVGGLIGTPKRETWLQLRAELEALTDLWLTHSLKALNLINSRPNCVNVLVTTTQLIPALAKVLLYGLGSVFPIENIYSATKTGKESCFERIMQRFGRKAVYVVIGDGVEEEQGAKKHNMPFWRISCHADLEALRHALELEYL
Target sequence (Q15475 whole entry, looked up): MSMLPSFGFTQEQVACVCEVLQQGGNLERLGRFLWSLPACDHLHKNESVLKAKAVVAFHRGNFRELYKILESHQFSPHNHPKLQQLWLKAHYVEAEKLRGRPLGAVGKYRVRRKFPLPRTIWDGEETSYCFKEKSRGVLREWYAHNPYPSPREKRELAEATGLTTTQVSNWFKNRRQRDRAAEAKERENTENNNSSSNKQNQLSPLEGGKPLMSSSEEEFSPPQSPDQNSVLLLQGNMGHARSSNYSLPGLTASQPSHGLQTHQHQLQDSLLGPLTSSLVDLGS
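AlphaScreen luminescence read after one hour at 37 °C in darkness. Pin-transferred compounds met GST-Six1 and His-Eya2 protein (5X stock 250 nM/500 nM) plus glutathione donor and Ni-chelate acceptor beads (5X, 50 ug/mL).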
CtBP-E1A inh – qHTS Assay for Inhibitors of the CtBP/E1A Interaction; CtBP / adenovirus E1A interaction (AlphaScreen); AlphaScreen GST-E1A/His-CtBP binding, 1536-well; active compounds read low; control for the full effect not named in the record; activity change, % (test concentration not listed); hit rate 0.49% among 340,000; AID 651724, 2012; in the data active means activity change below about -65%; inconclusive means about -30% to -65%; inactive means above about -30%; further: on the % scale 0 is the no-effect control and ±100 the full control effect
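In 5 uL wells, 23 nL compound meets equimolar GST-E1A and His-CtBP (5X stock 125 nM each) for 2 h, 37 °C. Beads (5X, 50 ug/mL) then 1 h, 37 °C, dark.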
gsp ag – qHTS for Agonist of gsp, the Etiologic Mutation Responsible for Fibrous Dysplasia/McCune-Albright Syndrome: qHTS; gsp mutant cells, cAMP HTRF, 30 min; control for the full effect not named in the record; Potency, µM (highest dose often 76.9 µM), for the others: at the highest dose activation (cAMP increase), actives largely listed as activators; hit rate 0.13% among 340,000; active = well fitted activation curve with a large enough effect; inconclusive = small, poorly fitted or top-dose-only effect, or another doubt; inactive = no such curve, though single readings can be large or run the other way; cell line not stated here;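 further: phosphodiesterase inhibitor Ro 20-1724 added with compounds to block cAMP breakdown; potency means the concentration at half of the fitted maximal effect; nearly all actives have a fitted effect of over 60% in size; about a fifth of the inactives were tested at one dose only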
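Cells in DMEM/10% FBS with G418 were pretreated with compounds in DMSO plus […] (300 uM stock) for 30 min at 37C. cAMP was measured by HTRF (cAMP-d2 plus anti-cAMP antibody-K) after 30 min at room temperature.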
D2 PAM – Beta-Arrestin HTS for Positive Allosteric Modulators of the Human D2 Dopamine Receptor: Potentiators; D(2) dopamine receptor (Homo sapiens), P14416; DiscoveRx D2 beta-arrestin cells, luminescence, 90 min; 100% = 57 uM dopamine signal; potentiation, % (concentration not given with the values); hit rate 0.23% among 360,000; AID 624464, 2012; active = potentiation of 50% or more; inconclusive = 30% to 50%; inactive = 30% or less;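 further: compound concentration not given in the record; tested on top of an EC20 dose of dopamine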
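PathHunter D2 cells, attached overnight at 37 deg C, received compound in DMSO plus dopamine at EC20 (50 nM final) for 90 min at 37 deg C. Beta-arrestin recruitment was read as luminescence after 1 h with detection reagent at ambient temperature.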
gsp antagonist – qHTS for Antagonists of gsp, the Etiologic Mutation Responsible for Fibrous Dysplasia/McCune-Albright Syndrome: qHTS; gsp-mutant cells, cAMP HTRF, 30 min; control for the full effect not named in the record; Potency, µM (top dose mostly 76.9 µM), inactives show top-dose activity change, negative = inhibition, usual class: inhibitors; hit rate 0.4% among 340,000; active = falling curve of any shape with a large fitted effect; inconclusive = falling curve, mostly with a smaller effect; inactive = flat or rising curve; cell line not stated here;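 further: intracellular cAMP measured with PDE inhibitor Ro 20-1724 present during compound exposure; potency means the concentration at half of the fitted maximal effect; on the % scale 0 is the no-effect control and ±100 the full control effect; nearly all actives have a fitted effect of over 65% in size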
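HTRF cAMP read-out (cAMP-d2 plus anti-cAMP antibody-K in lysis buffer, 30 min RT). Before lysis, cells are exposed to compounds with […] for 30 min at 37C in DPBS containing Ca/Mg, BSA and Tween 20.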
D2 ag – Beta-Arrestin HTS for Positive Allosteric Modulators of the Human D2 Dopamine Receptor: Agonists | D(2) dopamine receptor (Homo sapiens), P14416 | DiscoveRx PathHunter D2 beta-arrestin, luminescence, 90 min; 100% = 57 uM dopamine signal | activation, % (no concentration beside the values) | hit rate 0.084% among 360,000 | AID 624465, 2012; in the data active = activation above about 40%; inconclusive = about 15% to 40%; inactive = below about 15%; further: compound concentration not given in the record; the text of the record calls up to 30% inactive
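DiscoveRx PathHunter D2 beta-arrestin cells (2,100/well) attached overnight, then compound-stimulated 90 min at 37 C in HBSS/10 mM HEPES/0.1% Tween-20 buffer; beta-galactosidase complementation read by luminescence after 1 h at ambient temperature. Dopamine 57 uM final (EC100) as control.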
An asterisk follows results filed as active; u = inconclusive; x = not tested or not shown; [ ] = another dose, or the depositor's remark. Hits appear at their usual frequency, and some 1.4% of all compounds hit somewhere here.

SMILES	Six1-Eya2 inh	CtBP-E1A inh	gsp ag	D2 PAM	gsp antagonist	D2 ag
CC(C)(C)NC(=O)CN(C(=O)CCC(=O)Nc1nccs1)c1ccc(F)c(Cl)c1	-6	-14	-2%	-4	1%	2.1
Cc1ccc(S(=O)(=O)NN(Cc2ccccc2)Cc2ccccc2)cc1	-1	2	-2%	-1	x	-6.6
CCCCn1c(N)c(N(CC)C(=O)CN2C(=O)NC(C)(c3ccccc3)C2=O)c(=O)[nH]c1=O (centres undefined)	4	-3	6%[15.4 µM]	-2	4%	1.6
CCOC(=O)C1CCN(C(=O)C(C)Oc2ccc(Br)cc2)CC1 (centres undefined)	24	-9	-19%[15.4 µM]	-5	4%	-5.4
COc1ccc(N(C(=O)c2ccc(C)cc2)S(=O)(=O)c2cccs2)cc1	-8	1	-4%	-7	-18%	-2.0
Nc1nnc(SCc2cn3cc(Cl)ccc3n2)s1	6	0	-67%[inhibitor]	0	6%	-2.3
Nc1ccc(C(=O)Nc2ccc3nc(-c4ccncc4)[nH]c3c2)cc1	-25	u	-17%	-3	1%	-0.7
CC1(C)Cc2c(c(-c3ccco3)nc3sc4c(NCC5CCCO5)ncnc4c23)CO1 (centres undefined)	1	9	14%	14	7%	0.0
O=C(NCC(c1cccs1)N1CCOCC1)c1cc(F)cc(F)c1 (centres undefined)	9	-1	-10%	-15	x	-0.5
COc1ccc(/C=C(\NC(=O)/C=C/c2ccco2)C(=O)NCCc2nc3ccccc3[nH]2)cc1	-8	-25	-50%[inhibitor]	-14	-9%	-4.4
COc1cc(OC)cc(C(=O)Nn2cc(C(=O)Nc3c(F)cccc3F)c3ccccc3c2=O)c1	-4	13	12%	-17	-10%	-1.4
COc1cc2sc3cc(NCC[C@@H]4CCCN4C)ccc3c(=O)c2cc1OC	u	u	x	-20	5%	3.0
COc1cc(C(=O)O)ccc1OCc1ccncc1	-1	x	u	-5	2%	-2.4
Cc1ccc([C@@H]2[C@@H]3C(=O)N(c4ccccc4)C(=O)[C@@H]3[C@]3(C)C(=O)N(CC4CC4)CC(=O)N23)o1	6	-3	16%	-12	3%	-1.3
CC1CCN(C(=O)c2ccc(NC(=O)CC3SC(N4CCCC4)=NC3=O)cc2)CC1 (centres undefined)	-5	7	-1%[15.4 µM]	-2	3%	-4.9
CN[C@H]1C[C@@H](c2ccccc2)N(C(C)=O)C[C@H]1CO	0	-4	x	-8	x	-3.0
CCOC(=O)c1[nH]c(C)c(C(=O)OCCOc2cccc(C)c2)c1C	1	5	-4%	2	2%	5.3
COc1cccc(CNC(=O)CCS(=O)(=O)c2cccs2)c1	-1	1	5%	-18	15%	-0.5
O=C(NCCN1CCCCC1)Nc1cccc(C(F)(F)F)c1	0	7	1%[15.4 µM]	-14	5%	-5.7
CC(C)(C)NC(=O)C(=O)N/N=C/c1cccs1	0	-8	-7%	0	3%	-0.8
COc1cc2c(cc1OC)C(=Cc1ccc(N(C)C)cc1)C=C2	-71*	-78*	23%	-10	-2%	-5.3
CCCCNc1cc(=O)n(C)c(=O)[nH]1	3	0	-25%	-2	1%	-4.4
O=C1c2cccc3c(Cl)ccc(c23)C(=O)N1O	-28	8	u	-9	-9%	-1.6
CCOc1ccccc1C(=O)NN1C(=O)CCC1=O	-10	-3	0%	-24	4%	-5.7
Cc1ccc(C(=O)Nc2ccc(F)c(S(=O)(=O)N3CCOCC3)c2)s1	-3	x	-14%	-17	u	-0.2
C[C@H]1CN([C@@H](C)CO)C(=O)Cc2cc(NC(=O)CCC(F)(F)F)ccc2O[C@H]1CN(C)S(=O)(=O)c1ccc(Cl)cc1	-3	-2	x	-3	26%	-0.8
CC1Cc2ccccc2N1C(=O)c1cnc2ccccn2c1=O (centres undefined)	4	6	-2%	-17	0%	-0.3
CCOC(=O)N1CCN(Cc2ccccc2Cl)CC1	8	6	-18%	4	9%	8.2
CCCCc1nnc(NC(=O)C(C)Sc2nc(C)cc(=O)[nH]2)s1 (centres undefined)	4	5	5%	-2	-19%	0.3
COC(=O)[C@]1(C)N[C@H](CN(C)C(=O)NC(C)C)[C@@H]2C(=O)N(C)C(=O)[C@@H]21	5	3	x	-2	9%	-0.6
CC(CCc1ccco1)NC(=O)c1cccc2c1C(=O)N(C1CCCCC1)C2 (centres undefined)	-8	x	-48%[inhibitor]	-4	u	-5.8
O=C(NCCC1=CCCCC1)C1CCC(CNc2c(N3CCCCC3)c(=O)c2=O)CC1 (centres undefined)	2	10	9%[15.4 µM]	-1	5%	-2.2
Cc1nc(N)nc(Cl)c1CCC1OCCO1	1	0	u	-9	9%	-3.0
COc1ccc(C2(CNC(=O)c3cccc([N+](=O)[O-])c3)CCOCC2)cc1	-1	0	1%[15.4 µM]	-5	-1%	-3.2
C/C(CC(=O)Nc1ccc2c(c1)OCCO2)=N\NC(=O)Cc1ccccc1	4	0	0%	-9	10%	-2.5
O=C(N/N=C/C(Br)=C/c1ccccc1)c1n[nH]c2c1CCC2	-3	0	-46%	-18	-7%	-1.7
CC(C)(C)NC(=O)C(c1ccc(O)cc1)N(C(=O)CCC(=O)Nc1ccccn1)c1ccc(F)cc1 (centres undefined)	13	13	-1%[15.4 µM]	4	5%	-0.2
CCCCNC(=S)NNC(=O)c1csc2ccccc12	1	3	-35%[inhibitor]	-16	11%	-5.9
CCOc1cc(/C=C2\C(=O)N(c3nc(-c4ccc(Br)cc4)cs3)N=C2c2ccccc2)ccc1O	-19	-5	19%	-16	-21%	-6.5
COC(=O)c1cc2c(ccn2-c2ccc(F)cc2)n1CC(=O)C(C)(C)C	-14	x	7%	-14	-12%	-1.0
CS(=O)(=O)Nc1ccc2c(c1)OCC(=O)N2Cc1ccccc1	12	8	-35%[inhibitor]	1	-11%	0.6
C=Cc1ccc(Cn2c(=O)n(CCCOC)c(=O)c3sccc32)cc1	2	13	-21%	-2	-11%	-4.2
COc1ccc(NC(=O)N(C)C[C@@H]2OCc3cnnn3CCCC(=O)N([C@H](C)CO)C[C@H]2C)cc1	11	3	15%	7	x	2.5
O=C(CN1C(=O)NC2(CCCCC2)C1=O)Nc1ccc(F)cc1	0	2	-32%[inhibitor]	-3	4%	1.4
CCCN(C(=O)CSc1ncccn1)C1CCS(=O)(=O)C1 (centres undefined)	0	2	u	-2	11%	-1.6
CC1CC(C)CN(C(=O)C(C)N2CCN(S(=O)(=O)c3cccs3)CC2)C1 (centres undefined)	2	3	u	-2	-4%	-4.2
O=C(Nc1ccc(S(=O)(=O)N2CCOCC2)cc1)c1ccc(Cl)cc1	1	-7	-22%	-7	4%	-6.0
CCCn1nnnc1NCc1cccc(OC)c1	9	6	1%[15.4 µM]	-6	6%	2.0
COc1ccc(CN2CCNC(=O)C2CC(=O)NCCc2nc(C)c(C)s2)c(OC)c1 (centres undefined)	5	-10	-16%[15.4 µM]	-3	3%	-2.1
Cc1nn(C)cc1C(=O)Nc1ccc2c(c1)OCCO2	-3	5	-1%[15.4 µM]	-4	-28%	-3.1

Further results:
SMILES	Six1-Eya2 inh	CtBP-E1A inh	gsp ag	D2 PAM	gsp antagonist	D2 ag
CC(CNC(=O)COc1ccccc1)OC(=O)Nc1cccc(Cl)c1 (centres undefined)	16	6	5%[15.4 µM]	-4	-15%	1.8
Cc1ccccc1-c1nc(CN2CCC(C(=O)NC3CCCCC3)CC2)c(C)o1	1	6	u	-5	6%	-5.4
Cc1cccc(NC(=S)NCc2ccco2)c1C	-13	-20	-34%[inhibitor]	-13	10%	-2.2
NNC(=O)c1cc2c(s1)-c1cc(Cl)ccc1SC2	7	10	-5%[15.4 µM]	-10	10%	0.4
CCn1c(SCC(=O)Nc2nc3ccc(OC)cc3s2)nnc1-c1ccoc1C	-24	-25	2%	-7	4%	1.8
O=C(NCc1c(Cl)cccc1Oc1ccccc1)c1ccccc1	3	8	6%[15.4 µM]	-2	u	0.5
CC(C)(C)NC(=O)CSc1nc(N)c(NC(=O)c2ccccc2F)c(=O)[nH]1	1	0	20%[15.4 µM]	-3	-7%	-0.4
O=C(NCc1ccco1)c1ccc2c(=O)n(-c3ccccc3)c(=S)[nH]c2c1	2	5	-12%	-9	13%	-2.8
CN1CCN(c2ccccc2NC(=O)c2ccc(-c3ccccc3)cc2)CC1	-21	-23	12%	-41	50µM*	-2.5
O=C(c1cc(Br)ccc1Cl)N1CCN(c2ncccn2)CC1	-3	0	-12%	-6	0%	-3.2
COc1cc(/C=C(\NC(=O)c2cc(OC)c(OC)c(OC)c2)C(=O)NC(C(=O)O)c2ccccc2)cc(OC)c1OC (centres undefined)	u	6	u	-21	-4%	-8.3
Cc1cc(C)cc(OCc2nnc(SCC(=O)NC3CC3)n2C)c1	-6	6	-8%[15.4 µM]	0	3%	-3.1
COC(=O)c1ccc(NC(=O)CS(=O)(=O)c2ccccc2)cc1	-4	x	-20%	-54	-4%	-3.5
Cc1cccc2sc(NC(=O)C3c4ccccc4Oc4ccccc43)nc12	0	3	-66%[inhibitor]	-1	-25%	1.9
Cc1c(N2C(=O)CSC2=S)c(=O)n(-c2ccccc2)n1C	0	1	-1%[15.4 µM]	-12	5%	-4.7
O=C(c1ccc(Cl)cc1)N1CCC(N2CCC(C(=O)N3CCOCC3)CC2)CC1	-15	-6	-26%	-8	-2%	-1.5
O=C(N/N=C/c1ccc(O)cc1)/C(=C/c1ccc([N+](=O)[O-])cc1)NC(=O)c1ccccc1	2	4	-16%	-1	-4%	-1.9
CC(C)(C)OC(=O)N1CCC(NC(=O)c2[nH]cnc2C(=O)Nc2ccc(Br)cc2F)CC1	0	4	29%	2	x	-12
Fc1ccc(COc2ccc(Br)cc2CNCC2CCCO2)cc1 (centres undefined)	2	8	u	-33	7%	-2.3
O=C(NC1(C(F)(F)F)N=C2SCCN2C1=O)C1CCCCC1 (centres undefined)	5	4	36%	8	-4%	-1.3
O=C(COc1ccc(Br)cc1)NCCNC(=O)c1ccncc1	-3	8	-53%[inhibitor]	-16	-9%	-8.4
COc1ccc2c(c1)CSC(c1ccccc1)C2=O (centres undefined)	-2	3	16%	-19	x	-1.8

Marked active in CtBP-E1A inh, among the entries above:
SMILES	Six1-Eya2 inh	CtBP-E1A inh	gsp ag	D2 PAM	gsp antagonist	D2 ag
COc1cc2c(cc1OC)C(=Cc1ccc(N(C)C)cc1)C=C2	-71*	-78*	23%	-10	-2%	-5.3

Screening data deposited in PubChem by National Center for Advancing Translational Sciences (NCATS).
